Autofluor counter: flagged as autofluorescent in microsphere protease counterscreen. compound autofluorescence counterscreen, microsphere flow cytometry; hits give high values. fluorescence intensity (test concentration not listed). 360,000 tested, 3.1% active. AID 624483;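 active means at least 3 SD above the mean of all compounds, about 16000 in these data; inconclusive means too few beads counted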;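 further: 100 nL of 1 mM stock went into each well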
BJeLR lethal: kills HRASV12-expressing BJeLR cells; 300,000 tested, 0.17% active; inhibition, % (no concentration beside the values); AID 1554; BJeLR (HRASV12) viability, CellTiter-Glo ATP luminescence, 48 h; reference of the scale not given here;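 active means replicate mean above 50%; inconclusive means above 50% but judged a plate artefact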;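 further: 50 nL library stock added to about 25 µL; numbers are from one replicate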
PrP UTR inh: suppresses PrP 5' UTR mRNA reporter expression | cell-based PrP 5' UTR mRNA reporter, plate reader | inhibition, % (test concentration not listed) | 340,000 tested, 0.35% active;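 active means every replicate at 50% or more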;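 further: 0 = median of the neutral control wells; tested in H4 reporter cells; numbers are from one replicate; inactives centre near -14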
Mtb hypoxia inh: Mtb hypoxia fluorescent reporter inhibition; M. tuberculosis hypoxia-regulated fluorescent reporter, fluorescence; fluorescence inhibition, % (no concentration beside the values); AID 1159583; 300,000 tested, 0.1% active;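 active means 35 to 45% if threefold the growth effect, above 45% if 1.5-fold the growth effect; inactive means the rest, general growth blockers included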;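 further: wells of about 50 µL received 100 nL stock; 0% = vehicle wells and 100% = reference inhibitor wells; whole bacteria with a GFP reporter of the hypoxia response; strong numbers were not always called active; many hits fall short of the cut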
ugtP null kill: kills S. aureus RN4220 lacking UgtP. growth inhibition, % (concentration not given with the values). 330,000 tested, 0.54% active. S. aureus RN4220 ugtP deletion, OD600 growth, 16 h; some inactives read as strong as hits. AID 1259309;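 active means z-score under -3 and OD600 up to 0.15 on both plates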;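 further: plate controls were untreated wells for no effect and antibiotic for full effect; wells of about 80 µL received 100 nL stock; the first replicate is given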
RN4220 kill: S. aureus RN4220 growth inhibition; OD600, 16 h; inhibition, % (test concentration not listed); 330,000 tested, 0.33% active; AID 1259311;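 active means z-score of -3 or lower and OD600 up to 0.18 on both plates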;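 further: plate controls were untreated cells for no effect and reference antibiotic for full effect; stock transfer was 100 nL into about 80 µL; one replicate is shown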
Mtb hypoxia inh growth: further read-out of Mtb hypoxia inh, marked with its call; growth inhibition, %; measured here: M. tuberculosis growth (absorbance);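 0% = vehicle and 100% = reference antibiotic; read after six days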
* hit, by the source's call; ? = inconclusive; / = no result given.

Start of the listing, in advance, 2 compounds:
SMILES | Autofluor counter | BJeLR lethal | PrP UTR inh | Mtb hypoxia inh | Mtb hypoxia inh growth | ugtP null kill | RN4220 kill
O=C(Nc1ccc2c(c1)OCCO2)c1c[nH]c(=O)n(-c2ccc(F)c(Cl)c2)c1=O | 6969 | -3 | 9 | 7 | 1 | -1 | 5.9
CCN(CC)S(=O)(=O)c1ccc(NC(=O)C(C)N(c2ccc(OC)cc2)S(C)(=O)=O)cc1 (stereo not drawn) | 7856 | 6 | / | -2 | -1 | 8 | 1.0

This part in full, previewed entries included:
SMILES | Autofluor counter | BJeLR lethal | PrP UTR inh | Mtb hypoxia inh | Mtb hypoxia inh growth | ugtP null kill | RN4220 kill
O=C(Nc1ccc2c(c1)OCCO2)c1c[nH]c(=O)n(-c2ccc(F)c(Cl)c2)c1=O | 6969 | -3 | 9 | 7 | 1 | -1 | 5.9
CCN(CC)S(=O)(=O)c1ccc(NC(=O)C(C)N(c2ccc(OC)cc2)S(C)(=O)=O)cc1 (stereo not drawn) | 7856 | 6 | / | -2 | -1 | 8 | 1.0
Clc1nc2sccn2c1/C=N/n1cnc2ccccc21 | 7822 | 4 | -19 | / | / | / | /
O=C(Nc1ccc(N2CCN(Cc3ccccc3)CC2)cc1)c1ccccc1[N+](=O)[O-] | 2208 | 4 | -11 | 0 | 12 | 4 | 0.4
O=C1CN(CC(=O)N2CCCCC2)c2ccccc2O1 | 2212 | 1 | -45 | / | / | / | /
CCN(C(=O)c1cc2cccc(OC)c2oc1=O)C1CCCCC1 | 2183 | -2 | -7 | 8 | 9 | -3 | 6.1
COc1ccccc1OCC(=O)NCCSCc1ccc(Cl)cc1 | 1974 | 6 | -82 | 0 | 0 | -6 | 3.4
CCOC(=O)c1c(N=Cc2cccc([N+](=O)[O-])c2O)sc2c1CCC2 | / | / | / | 6 | -4 | 5 | 6.7
O=C(NC(=S)Nc1ccccc1N1CCOCC1)c1sc2ccccc2c1Cl | 1970 | -2 | -17 | 0 | -7 | 5 | -2.3
COc1ccccc1NC(=O)COc1ccc(/C=N/NS(=O)(=O)c2ccc(C)cc2)cc1 | 3671 | 5 | -17 | / | / | / | /
COc1ccc(C(=O)c2c(-c3cccc(C)c3)oc3ccc(N4CCOCC4)cc23)cn1 | 3487 | -8 | -4 | 7 | 5 | -2 | 0.3
O=C(CSc1cn(CC(=O)N2CCCC2)c2ccccc12)NCC1CCCO1 (stereo not drawn) | 3902 | 11 | 8 | -15 | 2 | 2 | 0.3
O=C(O)c1cc2c(cc1NC(=O)c1ccccc1C(F)(F)F)OCCCO2 | 3332 | -2 | -16 | -5 | -3 | 5 | 2.3
CCOc1ccc(S(=O)(=O)N2CCCC(C(=O)NCc3ccccn3)C2)cc1C (stereo not drawn) | 3053 | -5 | -13 | -1 | -6 | 13 | 1.0
CCC1(CC)NC(=O)N(CC(=O)OCC(=O)NC(=O)c2ccc(Cl)cc2)C1=O | 4038 | -1 | 1 | -14 | 0 | 0 | 5.2
COC(=O)C1=C(C)N(CCc2ccccc2)C(=O)C1 | 2668 | / | -33 | / | / | 3 | 1.8
O=C1CCCC2=C1C(c1cccc(O)c1)c1c(ccc3ncccc13)N2 (stereo not drawn) | 4243 | 0 | -15 | -13 | 1 | -1 | -0.3
Cc1cccc(-n2c(=O)[nH]c3c(C(N)=O)nc(C(C)C)nc32)c1 | 6065 | 3 | -4 | 0 | 4 | -6 | 3.8
COC(=O)C1=C(c2ccc(-c3ccccc3)c(F)c2)CC2CCC1N2C(=O)N1CCCC1 (stereo not drawn) | / | / | / | 14 | 12 | 10 | 7.0
O=C(Nc1ccc(N2CCOCC2)cc1)C1CCCCN1S(=O)(=O)c1ccccc1 (stereo not drawn) | 3973 | -11 | -35 | 0 | 2 | 7 | 3.8
Cc1ccc(NC(=O)C2CCCN(S(=O)(=O)c3ccc(-n4cnnn4)cc3)C2)cc1 (stereo not drawn) | 3695 | -5 | -15 | 8 | -1 | 0 | 0.5
CC1CN(C(=O)/C=C/c2ccc3c(c2)OCO3)CC(C)O1 (stereo not drawn) | 7847 | -18 | -9 | 91* | -12* | -1 | -0.5
CN(C)C(=O)C[n+]1ccc(/C=N/O)cc1 | 1887 | -5 | 8 | / | / | / | /
COc1cccc(CN2CCCC(C(=O)c3ccc4c(c3)OCO4)C2)c1O (stereo not drawn) | 4539 | -23 | -9 | -15 | 0 | 7 | 2.2
O=C(NN=Cc1ccc(O)c(Br)c1)c1cc2c(ccc3ccccc32)o1 | / | / | / | 4 | -6 | -19 | -7.0
(continued)
SMILES | Autofluor counter | BJeLR lethal | PrP UTR inh | Mtb hypoxia inh | Mtb hypoxia inh growth | ugtP null kill | RN4220 kill
CCOc1cc(C2NC(=S)NC(C)=C2C(=O)Nc2ccc(OC)cc2)ccc1O (stereo not drawn) | 7211 | 0 | 0 | 10 | 6 | 15 | 3.5
COc1ccc(C(=O)COC(=O)CN2C(=O)NC3(CC(C)CC(C)(C)C3)C2=O)c(OC)c1 (stereo not drawn) | 3515 | / | -8 | -6 | 5 | 7 | 2.9
Cc1ccc(S(=O)(=O)NC(Cc2ccccc2)C(=O)O)cc1C (stereo not drawn) | 3546 | -7 | -37 | 12 | 3 | 1 | 1.6
Cc1cccc(N(C(=O)c2csnn2)C(C(=O)NCc2ccccc2)c2ccc(C)o2)c1 (stereo not drawn) | 3746 | 1 | -18 | -1 | 1 | 1 | 5.0
O=C(O)C1CCCCC1C(=O)Nc1nc(-c2ccc(Cl)s2)cs1 (stereo not drawn) | 3978 | -2 | -10 | 2 | 0 | 1 | 8.3
O=C(Nc1ccccc1Cl)NC1(C(=O)NCc2ccncc2)CCCCC1 | 4521 | 1 | -25 | -2 | -11 | 3 | 1.4
CSc1ccc(CN2CCC(C(=O)NCc3ccc(C)cc3)CC2)cc1 | 4765 | 10 | 0 | 17 | 12 | 17 | 0.7
NC(=O)C1CCN(C(=O)c2cn(-c3ccccc3)nc2-c2cccnc2)CC1 | 4398 | -6 | -11 | -11 | -12 | 0 | 1.8
Cc1cc(OCC(=O)NCc2ccccn2)c2c(C)c(Cc3ccccc3)c(=O)oc2c1 | 5123 | -7 | -3 | 6 | 7 | 1 | -0.5
COc1cc(OC)cc(-c2c(C#Cc3ccsc3)c3cc(-c4cc(F)cc(F)c4)ccc3n2C)c1 | 3049 | / | 2 | 9 | 1 | -11 | 2.6
COc1ccccc1Nc1ccc(NC(=O)c2cccc([N+](=O)[O-])c2C)cc1 | 3456 | 3 | -44 | 7 | -8 | -13 | 3.0
CCc1c(C)c2cc(Cl)c(O)c(CN(CC)CC)c2oc1=O | 9892 | 13 | -14 | 6 | 11 | 6 | 0.9
O=C(Nc1cccc([N+](=O)[O-])c1)c1ccc2ccccc2c1O | 2934 | 24 | -39 | 12 | 20 | 86* | 86*
COC(=O)[C@@]1(Cc2ccccc2)[C@H]2C(=O)N(C)C(=O)[C@H]2[C@H]2CN=C(SC)N21 | 3907 | / | -19 | 3 | 3 | 4 | 4.9
O=C(NC1CC1)c1ccc(S(=O)(=O)NCC2CCCCC2)cc1 | 9630 | -3 | -49 | 2 | 3 | -1 | 5.7
O=C1CSC(c2ccco2)N1 (stereo not drawn) | 2791 | 3 | 7 | / | / | 4 | 0.1
CC1(C)Nc2ccccc2C(=O)N1NS(=O)(=O)c1ccccc1 | 2431 | -3 | -22 | -3 | -1 | 10 | 2.4
OCCC1CN(Cc2nc3c(s2)CCCC3)CCN1Cc1ccccc1 (stereo not drawn) | 3663 | -4 | 7 | -1 | 8 | -1 | 2.0
Cc1ccc(NC(=O)CSc2nnc(CCCCCNC(=O)OC(C)(C)C)o2)c(C)c1 | 11281 | 5 | -28 | 3 | -2 | 3 | -0.9
CCN(CCO)Cc1csc2cccc(Br)c12 | 2898 | 3 | -8 | / | / | 8 | 1.9
COc1cc(/C=C/C(=O)OCC(=O)NCc2ccco2)ccc1OCC#N | 4345 | 6 | -20 | 12 | 5 | 4 | -0.7
Cc1ccc(C2=NN(CC(=O)NCCC(C)C)C(=O)CC2)cc1 | 3639 | 10 | -14 | 1 | 6 | -1 | 0.5
CC(C)(CC1(C)NC(=O)NC1=O)OCc1ccccc1 (stereo not drawn) | 3806 | / | -43 | 4 | 2 | 6 | 3.6
O=C(CCCCCNC(=O)c1ccccc1Cl)NN=Cc1ccco1 | / | / | / | 16 | 6 | 1 | 2.8
CCN(CC(=O)NC(C)(C)C)C(=O)CCl | 8718 | -1 | -20 | 16 | 4 | -3 | 4.5
Next part:
SMILES | Autofluor counter | BJeLR lethal | PrP UTR inh | Mtb hypoxia inh | Mtb hypoxia inh growth | ugtP null kill | RN4220 kill
Cc1cccc(NC2=Nc3ccccc3N3C2=Nc2c(c(C)nn2-c2ccccc2)C3c2ccc(O)c(O)c2)c1 (stereo not drawn) | 3573 | 6 | -11 | 11 | 13 | 97* | 47
COc1ccc(/C=N/Nc2nc(-c3ccc(C)cc3)c(NC(C)=O)s2)cc1OC | 4131 | 9 | -5 | / | / | / | /
O=C(Nc1ccncc1)c1ccc2c(c1)C(=O)N(CC1CCCO1)C2=O (stereo not drawn) | 10240 | 8 | -8 | 6 | 2 | -6 | 6.6
Nc1nnnn1/N=C/c1ccco1 | 5155 | 0 | -21 | / | / | / | /
COC(=O)N/N=C1/C/C(=N\NC(=O)OC)c2ccccc21 | 2467 | 4 | -19 | / | / | / | /
ON=C1CCCC/C1=C\c1ccccc1 | / | / | / | 4 | -2 | 2 | 7.2
CCCCSc1nc(C)cc(SCC(=O)N/N=C/c2cccc(OC)c2O)n1 | 2944 | 7 | 17 | / | / | / | /
C=C(C)CNC(=S)Nc1ccc(S(=O)(=O)Nc2cnc3ccccc3n2)cc1 | 4202 | -7 | -20 | 11 | 1 | 5 | 9.5
O=C(O)CCC(=O)N1CCc2cc(S(=O)(=O)N3CCC(Cc4ccccc4)CC3)ccc21 | 6252 | 2 | -3 | -2 | 3 | -1 | -5.7
Cc1ccc(C2C3C(=O)N(c4ccccc4)C(=O)C3[C@]3(C)C(=O)N(Cc4ccccc4)CC(=O)N23)o1 (stereo partly drawn) | / | / | / | 11 | 8 | 1 | 7.4
CCc1ccc(NC(=O)c2noc3c2CCc2ccccc2-3)cc1 | 6489 | -13 | -31 | -81 | -8 | -3 | 1.1
CCn1c(C(=O)NCc2cccnc2)cc2sc(Cl)cc21 | 10259 | 3 | -19 | 3 | 5 | 2 | -0.3
NNC(=O)Cn1c2ccccc2c2ccccc21 | 4664 | -3 | -12 | 6 | 20 | -3 | 0.8
Cn1c(N2CCOCC2)c(/C=N/OC(=O)c2ccc(F)cc2)c2ccccc21 | 8683 | -7 | -12 | / | / | / | /
Oc1cccc(Nc2ncnc3c2oc2ccccc23)c1 | 3971 | 0 | -17 | 14 | 12 | -7 | 4.1
Cc1ccc([N+](=O)[O-])cc1NC(=O)c1cccs1 | 4024 | 0 | -8 | 4 | 12 | 4 | 8.4
Cc1ccc(S(=O)(=O)N2CCC(C(=O)N(C)C3CCS(=O)(=O)C3)CC2)cc1 (stereo not drawn) | 4611 | -1 | -7 | 10 | 12 | 2 | 5.5
Cc1ccc(N2CC(C(=O)NC3=NCCS3)CC2=O)cc1C (stereo not drawn) | 5167 | 8 | -19 | / | / | -2 | 1.7
Cc1ccc2c(C)c(C(=O)N(Cc3ccc(N(C)C)cc3)C3CCS(=O)(=O)C3)oc2c1 (stereo not drawn) | 5601 | 1 | -11 | -7 | 1 | 0 | -0.4
CCCN(CC(=O)Nc1ccccc1C)C(=O)c1ccc(Cl)c(S(=O)(=O)N2CCCC2)c1 | ? | -2 | -20 | 2 | -2 | 8 | 1.2
CC(=O)c1cccc(NC(=O)Cc2ccc3c(c2)CCCC3)c1 | 8133 | -17 | -8 | -2 | 4 | -1 | 0.0
Cc1cccc(NS(=O)(=O)c2c(C)noc2C)c1 | 4616 | 1 | -22 | / | / | / | /
Cc1ccc(S(=O)(=O)Nc2c(C)n(C)n(-c3ccccc3)c2=O)cc1C(=O)OCC(=O)N1CCCC(C)C1 (stereo not drawn) | 4409 | -1 | -29 | 11 | 1 | 4 | 5.9
c1ccc(-c2ccc(OCCN3CCOCC3)cc2)cc1 | 4148 | 2 | -57 | 7 | 12 | 6 | 3.8
CC(O)CNC(=S)Nc1ccccc1 (stereo not drawn) | 4294 | / | -13 | -2 | 19 | 1 | 2.7

Single records, as listed above. Screens in order: Autofluor counter | BJeLR lethal | PrP UTR inh | Mtb hypoxia inh | Mtb hypoxia inh growth | ugtP null kill | RN4220 kill
NNC(=O)Cn1c2ccccc2c2ccccc21 in the list: 4664 | -3 | -12 | 6 | 20 | -3 | 0.8
O=C(Nc1ccncc1)c1ccc2c(c1)C(=O)N(CC1CCCO1)C2=O (stereo not drawn) in the list: 10240 | 8 | -8 | 6 | 2 | -6 | 6.6
